# Compound activity from PubChem BioAssay.
# LANA-H2A inh – blocks KSHV LANA binding to histone H2A/H2B; 320,000 tested, 0.6% active; inhibition, % (test concentration not listed); cell-free LANA-H2A/H2B peptide, fluorescence polarization; Q9QR71; in the data active means inhibition mostly above about 10%, no sharp cut-off; inactive means mostly below about 6.7%;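 further: stock transfer was 7.5 nL into about 10 µL; 0% = median of vehicle wells and 100% = median of positive control wells; one replicate is shown; the record names a cut of 25% in any replicate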
# Calb FLC – affects C. albicans growth with fluconazole; C. albicans CaCi-2 (fluconazole-resistant clinical isolate) + fluconazole, Alamar Blue growth, 48 h; growth inhibition, % (test concentration not listed); 300,000 tested, 0.57% active; AID 1979;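 active means most replicates above 75%; inconclusive means exactly half above 75%; inactive means most below 75%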;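 further: all wells also contain fluconazole at 8 µg/ml as a sub-toxic cotreatment; 0% = median of DMSO wells and 100% = median of geldanamycin control wells; wells of about 8 µL received 7.5 nL stock; the first replicate is given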
# B2AR ag – activates human beta-2 adrenergic receptor causing internalization | AID 504454 | P07550 | Am2.2-beta2AR cells, FAP receptor internalization, flow cytometry; reference of the scale not given here | response, % (test concentration not listed) | 340,000 tested, 0.43% active;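 active means response above a set limit, near 3 SD of response in nonfluorescent compounds, cut at about 42% in these data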;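 further: stock transfer was 100 nL into about 11 µL; a reference agonist was the positive control; negative values mostly stem from fluorescent compounds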
# Target sequence (P07550 whole entry, looked up): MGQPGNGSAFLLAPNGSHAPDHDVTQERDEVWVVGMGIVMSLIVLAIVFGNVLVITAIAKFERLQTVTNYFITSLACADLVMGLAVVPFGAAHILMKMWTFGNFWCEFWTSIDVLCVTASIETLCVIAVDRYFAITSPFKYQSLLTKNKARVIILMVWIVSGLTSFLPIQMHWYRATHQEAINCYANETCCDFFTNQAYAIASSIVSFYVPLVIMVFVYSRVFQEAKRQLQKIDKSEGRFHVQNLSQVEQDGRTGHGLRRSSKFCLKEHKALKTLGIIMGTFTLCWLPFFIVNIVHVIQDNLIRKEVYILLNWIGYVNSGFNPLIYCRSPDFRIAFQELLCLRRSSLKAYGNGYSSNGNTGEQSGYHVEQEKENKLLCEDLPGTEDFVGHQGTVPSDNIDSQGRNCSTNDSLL
# Bfl-1 A1 inh – inhibitors of the anti-apoptotic protein A1, read as caspase activation | MEF A1-2A-BIM cells, Caspase-Glo 3/7 luminescence, 3 h; percent of clofoctol response, vehicle zero | caspase activation, % (concentration not given with the values) | 330,000 tested, 0.066% active;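 active means over half of replicate activation scores above 10%, or exactly half above 10 with the replicate mean above 10; inconclusive means replicate mean below 10 yet half the replicates above 10; inactive means over half of replicates below 10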;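 further: wells of about 30 µL received 50 nL stock; many hits fall short of the cut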
# rRNA inh HTS – inhibitors of bacterial rRNA selective over humanized ribosomes. E. coli WT GFP vs humanized-ribosome RFP mutants, fluorescence, 24 h; active compounds read low; DMSO median 0, no signal -100. GFP signal change (wild-type ribosome), % (no concentration beside the values). 350,000 tested, 1.6% active. AID 720706;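 active means significant combined selectivity score with lowered wild-type GFP, culture density cut under 30%, mutant RFP and density less affected; inactive means any of these conditions unmet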; further: one replicate is shown; some compounds called inactive have numbers as strong as hits
# ALR H2O2 inh – human ALR oxidase inhibition via reduced H2O2; P55789; purified ALR, DTT oxidation, H2O2 HRP-luminol luminescence; inhibition, % (concentration not given with the values); 290,000 tested, 3.8% active;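 active means mean and each replicate at 75% or more; inconclusive means only one of the two met; inactive means neither met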;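 further: stock transfer was 7.5 nL into about 7.5 µL; 0% = neutral wells and 100% = wells with inactivated enzyme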
# Target sequence (P55789 whole entry, looked up): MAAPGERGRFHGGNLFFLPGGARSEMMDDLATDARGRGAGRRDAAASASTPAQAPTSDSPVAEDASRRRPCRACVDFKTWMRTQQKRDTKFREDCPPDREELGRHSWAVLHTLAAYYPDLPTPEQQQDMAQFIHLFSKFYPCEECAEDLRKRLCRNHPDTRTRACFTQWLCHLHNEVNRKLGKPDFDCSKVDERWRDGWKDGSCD
# Beta cell apopt – beta cell apoptosis inhibition. AID 435005. INS-1E cytokine-induced death, ATP luminescence, 48 h; percent of positive-control rescue, neutral wells zero. protection from apoptosis, % (concentration not given with the values). 300,000 tested, 0.8% active;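 active means all replicates at 75% or more, or half of them and the mean; inconclusive means half reach 75% but not the mean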;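 further: 0% = cytokine-treated negative control wells and 100% = positive control rescue; higher means more ATP so stronger rescue from cytokine killing; wells of about 40 µL received 100 nL stock; the first replicate is given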
# T cruzi inh – blocks replication of Trypanosoma cruzi; T. cruzi beta-gal in NIH3T3, luminescence, 90 h; inhibition, % (test concentration not listed); 300,000 tested, 1.4% active;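 active means mean inhibition across valid replicates above about 55%, limit read from the data; inconclusive means mean below that limit but half or more replicates reach it; inactive means mean below it, under half of replicates reach it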;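 further: signal also drops with host cell toxicity which is not excluded here; 0% = plate median of DMSO wells and 100% = zero luminescence signal; higher percent means less beta-gal luminescence so fewer parasites; stock transfer was 50 nL into about 50 µL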
# rRNA inh HTS OD600 – second read-out of rRNA inh HTS, no call of its own (marks repeat the call); OD600 change, %; measured here: OD600 growth;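 optical density of the mix in the first replicate; 0 = DMSO median and -100 = no signal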
# rRNA inh HTS RFP – recorded beside rRNA inh HTS, whose call it bears; RFP signal change, %; measured here: RFP humanized mutant strains;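 first replicate; 0 = DMSO median and -100 = no signal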
# An asterisk follows results filed as active; ? = inconclusive; · = no result given; & = joins results of further samples.
# Under each structure – rRNA inh HTS RFP	rRNA inh HTS	Beta cell apopt	rRNA inh HTS OD600	Bfl-1 A1 inh	B2AR ag	T cruzi inh	Calb FLC	LANA-H2A inh	ALR H2O2 inh
COCCNC(=O)CN(C(=O)c1ccc(N2CCCC2)nc1)c1ccc(Cl)cc1
    1.6	8	-2	-3	1.5	-5	-5	3	-5.2	-9
COc1ccccc1-c1c(C)nn2c(N3CCC4(CC3)OCCO4)cc(C)nc12
    ·	·	1	·	-0.3	12	6	26	1.7	1
Cn1c(C(=O)NCc2cccnc2)cc2sc(Cl)cc21
    -6.3	-9	0	1	0.2	1	61*	-6	0.6	94*
CCCc1nnc(NC(=O)CS(=O)(=O)c2ccccc2)s1
    -1.5	5	-5	5	-0.4	9	-12	-11	-2.0	-4
Cc1noc(C)c1S(=O)(=O)N(C)C[C@H]1Oc2c(cccc2N(C)C)C(=O)N([C@H](C)CO)C[C@@H]1C
    0.0&2.0	0&0	-4	1&-4	1.1	-9	·	·	0.9	·
O=C(CCc1n[nH]c(=O)[nH]c1=O)N1CCCCC1
    -1.8	10	-4	14	0.2	-3	-6	8	0.3	-44
CCCn1nc(NS(=O)(=O)c2cccc3nonc23)c2cc3ccccc3nc21
    2.4	1	-1	-33	0.2	15	-38	34	0.8	99*
CCOC(=O)c1c(C)n(CCNC(C)=O)c2ccc(O)cc12
    ·	·	2	·	0.2	-6	-15	-3	-3.4	-28
COc1cccc(C2c3[nH]c4ccccc4c3C[C@H]3C(=O)N(CCCCCO)CC(=O)N23)c1 (stereo partly drawn)
    -1.1	-4	-5	-1	2.5	10	8	-1	-2.0	98*
COc1ccc(CNC(=O)c2cnc3scc(C)n3c2=O)cc1
    6.0	-4	-1	2	-0.2	-4	5	4	-7.9	·
O=C1NC(=Nc2ccccc2)S/C1=C\C=C\c1ccco1
    8.0	7	-5	16	-1.3	-5	-14	-1	2.6	50
O=S1(=O)CC/C(=N\Nc2ccc(F)cc2)c2ccsc21
    5.9	-15	4	-13	-0.2	10	27	-31	-0.9	98*
COc1cc2c(C(=O)N3CCN(Cc4ccc5c(c4)OCO5)CC3)cn(C)c(=O)c2cc1OC
    ·	·	-11	·	0.1	5	-4	5	1.9	3
O=C1CC(N2CCC(c3nc4ccccc4[nH]3)CC2)C(=O)N1c1ccccc1F (stereo not drawn)
    -0.4	20	-4	15	0.6	2	4	-31	-1.4	-3
CCn1c2ccccc2c2nnc(SCCCn3c(=O)[nH]c4ccccc43)nc21
    ·	·	9	·	?	2	·	·	-8.2	0
COC(CNC(=O)c1ccc2c(c1)ncn2-c1ccc(C)cc1C)OC
    -0.3	10	-8	5	0.2	-4	14	-7	-2.6	5
COc1ccc(C(C(=O)NC2CCCC2)N(C(=O)c2csnn2)C2CCCC2)cc1 (stereo not drawn)
    -0.7	0	3	6	-0.7	1	-6	-3	1.3	3
COc1c(C(=O)NC(=S)Nc2nnn(C)n2)cc2ccccc2c1Br
    -0.7	-1	3	2	?	-8	-48	8	2.5	-80
CCOc1cc(NC(=S)NC)c(OCC)cc1NC(=O)c1ccc(OC)cc1
    -2.6	-15	-2	-5	0.8	3	-6	18	5.8	-4
COc1ccc(CN(Cc2ccc(OC)cc2)C(=O)c2cccs2)cc1
    -5.8	-40	-13	-40	0.5	-7	5	-8	3.2	-6
COc1ccc(NC2CC(=O)N(c3ccccc3)C2=O)cc1 (stereo not drawn)
    ·	·	-2	·	0.5	-3	1	-18	1.9	·
CN1C(=O)C(C)(C)c2cc(S(=O)(=O)N3CCN(c4ccccc4)CC3)ccc21
    2.6	-4	-2	-17	-0.3	2	15	-6	5.3	22
Cc1ccc(C2CC(c3cccs3)=NN2C(=O)CSc2nc3ccccc3o2)cc1 (stereo not drawn)
    ·	·	4	·	1.4	-4	29	0	1.5	14
Cc1ccccc1NC(=O)NCCc1nc2ccccc2[nH]1
    ·	·	-4	·	-0.4	7	-2	1	0.6	-22
COc1ccc(-n2nc(C(=O)NCC(=O)N3CCN(c4ccccc4OC)CC3)c3ccccc3c2=O)cc1OC
    -4.3	3	6	7	-0.3	14	0	19	2.5	11
COC(=O)c1sccc1NC(=O)c1cc(-c2ccc(C)cc2C)nc2ccccc12
    ·	·	19	·	0.6	11	·	-6	-1.6	-30
CCCC(=O)Nc1sc(C)c(C)c1C(=O)Nc1cccc(C)c1
    1.4	12	-3	8	-0.8	8	17	-12	-0.3	·
CCN1C(=O)/C(=c2\sc3nc(=O)c(Cc4ccccc4)nn3c2=O)c2ccccc21
    0.0	4	-6	3	?	6	-6	1	-1.5	57
Cc1ccc(N2C(=O)N(CC(=O)Nc3cc(F)ccc3C)C(=O)C2C)cc1 (stereo not drawn)
    -1.1	-1	1	-3	0.0	-4	-24	·	-1.6	1
O=S(=O)(c1ccc(SCCO)nc1)N1CCOCC1
    -0.6	11	-1	18	-0.9	2	·	·	2.8	-4

# Arranged by molecular weight (ascending): some entries from above
# Under each structure – rRNA inh HTS RFP	rRNA inh HTS	Beta cell apopt	rRNA inh HTS OD600	Bfl-1 A1 inh	B2AR ag	T cruzi inh	Calb FLC	LANA-H2A inh	ALR H2O2 inh
Cc1ccc(N2C(=O)N(CC(=O)Nc3cc(F)ccc3C)C(=O)C2C)cc1 (stereo not drawn)
    -1.1	-1	1	-3	0.0	-4	-24	·	-1.6	1
CN1C(=O)C(C)(C)c2cc(S(=O)(=O)N3CCN(c4ccccc4)CC3)ccc21
    2.6	-4	-2	-17	-0.3	2	15	-6	5.3	22
CCN1C(=O)/C(=c2\sc3nc(=O)c(Cc4ccccc4)nn3c2=O)c2ccccc21
    0.0	4	-6	3	?	6	-6	1	-1.5	57
COc1ccc(-n2nc(C(=O)NCC(=O)N3CCN(c4ccccc4OC)CC3)c3ccccc3c2=O)cc1OC
    -4.3	3	6	7	-0.3	14	0	19	2.5	11

# (listing goes on)
# Under each structure – rRNA inh HTS RFP	rRNA inh HTS	Beta cell apopt	rRNA inh HTS OD600	Bfl-1 A1 inh	B2AR ag	T cruzi inh	Calb FLC	LANA-H2A inh	ALR H2O2 inh
CCOc1ccc(NCC2CCOC(C)(C)C2)cc1 (stereo not drawn)
    ·	·	2	·	-0.1	-6	2	-12	0.8	-20
Cc1ccccc1NC(=O)Cn1nc(-c2ccc(Cl)s2)ccc1=O
    3.0	13	-6	13	0.5	11	9	-4	1.4	-1
Cc1nc2ccc(NC(=O)c3cccs3)cc2s1
    -0.3	1	·	13	-1.4	-13	-9	4	0.5	-1
COc1cccc(C(C)NC(=S)NCc2ccc(Cl)cc2)c1 (stereo not drawn)
    0.4*	-24*	9	-16*	0.0	-3	-12	-38	0.4	-35
CSc1nnc(SCC(=O)N(C)c2c(N)n(Cc3ccccc3)c(=O)[nH]c2=O)s1
    0.1	7	-3	11	-0.1	-4	-8	0	-1.4	-12
Cc1ccc(-n2ncc3c2CC(C)(C)CC3NC(=O)CN2CCCC2=O)cc1 (stereo not drawn)
    0.3	6	-5	4	0.1	0	2	-3	0.5	-10
CC(C(=O)Nc1ncccn1)(c1ccccc1)c1ccccc1
    -0.2	1	-5	-4	-0.5	-2	11	3	-3.0	2
CCOC(=O)N1CCN(c2nc(-c3ccc(Cl)cc3)cs2)CC1
    ·	·	-6	·	-0.3	-1	10	2	-0.3	24
COc1ccc(CN2CCN(c3nc4ccccc4s3)CC2)cc1
    2.8	-2	·	-5	·	-7	3	5	·	·
C1CN(c2nc3nonc3nc2N2C[C@H]3CC[C@H]2C3)CCS1
    1.7	19	-1	11	0.0	1	5	44	-1.7	-4

# For reference, part of the list above:
# Under each structure – rRNA inh HTS RFP	rRNA inh HTS	Beta cell apopt	rRNA inh HTS OD600	Bfl-1 A1 inh	B2AR ag	T cruzi inh	Calb FLC	LANA-H2A inh	ALR H2O2 inh
CCOC(=O)N1CCN(c2nc(-c3ccc(Cl)cc3)cs2)CC1
    ·	·	-6	·	-0.3	-1	10	2	-0.3	24
COc1ccc(CN2CCN(c3nc4ccccc4s3)CC2)cc1
    2.8	-2	·	-5	·	-7	3	5	·	·
C1CN(c2nc3nonc3nc2N2C[C@H]3CC[C@H]2C3)CCS1
    1.7	19	-1	11	0.0	1	5	44	-1.7	-4

# Next section:
# Under each structure – rRNA inh HTS RFP	rRNA inh HTS	Beta cell apopt	rRNA inh HTS OD600	Bfl-1 A1 inh	B2AR ag	T cruzi inh	Calb FLC	LANA-H2A inh	ALR H2O2 inh
CC1(C)CC(=O)C(N=Nc2ccc(-c3ccccc3)cc2)=C(O)C1
    2.0	20	3	12	-2.0	-1	1	18	-1.8	-18
CCN1CCn2c3c(c4cc(Cl)ccc42)CCCC31 (stereo not drawn)
    ·	·	-6	·	-0.3	4	31	-30	-13	51
COc1ccc(CNC(=O)C2=CC(c3ccc(OC)c(OC)c3)=NS(=O)(=O)N2C)cc1
    -2.0	6	-7	-7	-0.1	-4	-1	1	-1.3	-2
C/C(=N\Nc1nc(C)cc(C)n1)c1ccc(C)o1
    0.0	2	3	-8	-0.4	-3	-40	22	6.1	91*
Cc1ccc(/C=C/C(=O)Nc2nn[nH]n2)o1
    1.4	31	-7	3	-0.1	3	3	-1	-3.0	28
COCCNC(=O)/C(C#N)=C/C=C/c1ccccc1[N+](=O)[O-]
    3.9	10	-24	7	1.0	12	-41	-1	2.1	·
Cc1cc(=O)[nH]c2c3ccccc3nn12
    -2.2	8	-3	17	-0.8	11	-11	9	0.6	·
Cc1cc(NC(=O)CSc2nc(-c3ccc(F)cc3)cs2)no1
    ·	·	3	·	-0.1	4	-12	6	0.8	·
CCC(C)CCCCNC1=NCCS1 (stereo not drawn)
    -8.2	8	-1	-6	0.2	-3	19	-3	·	·
O=C(CN1C(=O)c2ccccc2C1=O)NCC1CCCO1 (stereo not drawn)
    ·	·	-3	·	-0.5	0	6	-3	-3.1	-16
O=C(Nc1cc(=O)[nH]c2nc(-c3ccc(Cl)cc3)nn12)c1ccccc1
    ·	·	2	·	-0.1	·	49	4	12	2
CCOC(=O)c1ccc[n+](CC(=O)Nc2ccccc2OC(F)F)c1
    -1.2	12	-16	-3	-0.5	1	-11	-2	-1.0	-25
COc1ccc2nc(NC(=O)C34CC5CC(CC(NC(C)=O)(C5)C3)C4)sc2c1
    -2.4*	-27*	-6	-21*	0.5	4	1	-5	-0.9	35
Cn1nc(-c2ccccc2)cc1NC(=O)c1ccc(Cl)cc1
    6.4	-13	-1	2	0.2	-2	·	·	-2.2	·
CC(C)(C)NC(=O)CSc1nncn1NCc1ccccc1
    ·	·	-1	·	0.3	-6	-13	9	2.0	·
CCOc1ccc(S(=O)(=O)Nc2cccc(C(=O)N(C)CC(=O)Nc3cccc(OC)c3)c2)cc1
    2.1	-2	-2	-10	0.1	2	-12	-2	-1.1	-1

# A portion of the library; the hit share may differ from the screen's.
